MgrA DNA FP – modulators of Staphylococcus aureus MgrA DNA binding; inhibition, %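 (about 10 µg/mL by stock and volumes)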; 84,000 tested, 0.13% active; fluorescence polarization;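 active means above 50% in either of two replicates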;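 further: 0% = protein plus DNA without compound and 100% = DNA alone without protein; higher means less MgrA bound to DNA so lower polarization; one replicate is shown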
S aureus helic – S. aureus DNA helicase inhibition; purified S. aureus helicase, fluorescence unwinding assay; about half of the hits fall short of the stated cut; inhibition, %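 (tested at about 80 µM)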; 120,000 tested, 0.05% active;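 active means both duplicates at 50% or more, or one of them with a favoured structure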;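 further: 0% = mean of negative control wells and 100% = mean of positive control wells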
* = called active by the depositor; · = not tested or not shown; & = joins results of further samples. These rows are one share of the data, so the mix of outcomes need not match the whole.

MgrA DNA FP | S aureus helic | SMILES
-2.8 | 8 | CC1CC(=O)Nc2ccccc2N1C=O (stereo not drawn)
0.4 | 15 | Cc1oc2c(CN(C)C)c(O)ccc2c(=O)c1Oc1ccc2ccccc2c1
· | 9 | CC(C)(C)C(=O)COC(=O)c1cc(=O)c2ccccc2o1
-0.2 | 21 | O=C(NCc1ccccn1)c1cccc(C(F)(F)F)c1
-0.8 | · | N#CCc1nn2c(C(F)(F)F)cc(C(F)(F)F)nc2c1C#N
2.4 | 8 | CN1c2ccccc2C(C)(C)C12Cc1cc(NS(=O)(=O)c3ccc(Cl)cc3)ccc1O2 (stereo not drawn)
1.6 | · | CN(CCS(=O)(=O)c1ccc(Cl)cc1)Cc1cccnc1
0.4 | 12 | CCNc1ncnc2sc3c(c12)CCC3
· | 0 | CCN(CC)S(=O)(=O)c1ccc(C(=O)OCCN2C(=O)CCC2=O)cc1
· | 19 | O=C1NC(c2ccccc2)C(C(=O)c2ccccc2)C(O)(C(F)(F)F)N1 (stereo not drawn)
4.7 | -95 | O=C1/C(=C/c2ccc(N3CCOCC3)cc2)Cc2ccccc21
· | 0 | N#CCn1c(CSc2ccc3c(c2)OCCO3)nc2ccccc2c1=O
3.1 | -7 | CC(C)Sc1nc(-c2ccccc2)cc(=O)[nH]1
0.5 | · | O=C1CSCC(=O)N1c1ccc2c(c1)OCO2
-2.6 | · | Cc1c(C)c(C)c(CSC(=S)N(C)C)c(C)c1C
· | -7 | CCOC(=O)Nc1cc(C(=O)OC)cc(C(=O)OC)c1
· | -9 | O=C(Nc1cccc(F)c1)C1COc2ccccc2O1 (stereo not drawn)
-4.6 | 12 | O=C1NC(c2cccs2)Nc2c1sc(=S)n2-c1ccccc1 (stereo not drawn)
-1.1 | 13 | CCCN1CCC(NC(=O)Nc2cc(Cl)ccc2OC)CC1
-0.4 | 4 | CCc1ccc(N(CC(=O)NC2CCCC2)S(=O)(=O)c2c(C)noc2C)cc1
0.1 | · | Fc1ccc(C2=CSC3=NCCCN23)cc1F
3.3 | · | COc1cccc(NC(=O)c2c(C)cc(C)cc2CC(C)(C)C(=O)O)c1
-2.4 | · | CCN(Cc1cc(OC)cc(OC)c1)C(=O)c1c(C(F)(F)F)ccnc1OC
0.3 | 0 | O=C(Nc1c2c(nc3ccccc13)CCCC2)c1ccccc1Cl
-1.0 | · | Cc1ccc(-c2cc(=O)c3ccccc3o2)cc1
· | 0 | CCN=c1scc(-c2ccc3c(c2)NC(=O)CO3)n1/N=C/c1cccs1
-0.8 | · | Cn1cc(Br)c(-c2cccc(NC(=O)c3ccccc3Cl)c2)n1
-2.3 | 9 | COc1ccc(OCC(O)Cn2c(C(C)C)nc3ccccc32)cc1 (stereo not drawn)
-2.8 | · | CCSc1nc(N)nc(C(C)C)n1
1.0 | · | O=C(O)c1cccc(N2C(=O)c3ccc4c5c(ccc(c35)C2=O)C(=O)N(c2cccc(C(=O)O)c2)C4=O)c1
· | 6 | Cc1ccc(Cn2c(SC(C)C(N)=O)nc3ccccc3c2=O)cc1 (stereo not drawn)
-2.9 | 0 | CC1CN(C(=O)C(C)Sc2nc(-c3ccccc3)cc(C(F)(F)F)n2)CC(C)O1 (stereo not drawn)
· | 9 | NC(=O)CSc1nnc2scc(-c3ccc(Cl)cc3)n12
0.8 | -1 | CCOc1ccc(C2=NCCNC3=C2C(c2ccccc2)N(c2ccccc2)C3=O)cc1 (stereo not drawn)
· | -2 | CCC(=N)C1=C(O)CC(C)(C)CC1=O
· | -4 | Cc1ccc2oc(=O)c3cnn(CC(=O)N(C)c4ccccc4)c3c2c1
-1.4 | · | O=C(CC(Sc1ccccc1C(=O)O)c1ccc(F)cc1)c1ccc(F)cc1 (stereo not drawn)
-1.6 | · | Cc1ccccc1-n1c(-c2cccnc2)noc1=O
-0.1 | · | Cc1c(/C=C/C(=O)Oc2ccc(C#N)cc2)sc2ccccc12
· | 4 | CCOc1ccc(-n2c(C)nc3c(cnn3-c3ccccc3Cl)c2=O)cc1
-1.8 | · | C/C(=C(/C#N)C(N)=O)c1ccccc1
-1.2 | · | C=CCn1c(NC(C)=O)nc2ccccc21
-0.6 | 7 | O=C(CSc1ccccn1)c1ccc(Cl)cc1
-2.0 | · | CCOC(=O)c1c(C)n(-c2cccc(Br)c2)c2c1cc(O)c1ccccc12
1.1 | · | Nc1c(-c2ccccc2)cnn1-c1ccccc1
· | 11 | O=c1[nH]c2c(c(=O)[nH]1)CCC2
0.5 | 9 | Cc1ccsc1C=Nc1ccc(Nc2ccccc2)cc1
· | 12 | CCC(=O)NC1(C(F)(F)F)N=C(c2ccccc2)N(C2CCCC2)C1=O (stereo not drawn)
-4.7 | 10 | COc1ccccc1NS(=O)(=O)c1ccc2c(c1)CCN2C(=O)CCC(=O)O
· | 13 | Cc1noc(C)c1S(=O)(=O)NCCCN1CCCC(C)C1 (stereo not drawn)
· | 10 | Cc1ccnc(NC(c2ccc3c(c2)OCO3)c2c(C)[nH]c3ccccc23)c1 (stereo not drawn)
· | 19 | CCSc1nnc(CSc2ncccn2)n1C
1.9 | 14 | O=C(Cn1ncn2nc(-c3ccco3)cc2c1=O)NCc1ccccc1
4.8 | -1 | Cc1ccc2nc(-c3ccc(N4C(=O)C=CC4=O)cc3)sc2c1
11 | -48 | COC(=O)c1c2c(n3cc4ccccc4cc13)C(=O)c1ccccc1C2=O
-3.5 | 10 | CCc1cc2c(NCCN3CCCCC3)ncnc2s1
1.6 | 14 | Oc1ccccc1C1NN=C(c2ccccc2)S1 (stereo not drawn)
· | -9 | N#Cc1cccc(NC(=O)COC(=O)C2=NNC(=O)CC2)c1
0.7 | 7 | CC1CCc2cc(F)ccc2N1C(=O)c1cccs1 (stereo not drawn)
· | -19 | CC(=O)NCCc1nc2ccccc2[nH]1

Overlap with the part before: 3 compounds, followed by the next part.
MgrA DNA FP | S aureus helic | SMILES
· | -9 | N#Cc1cccc(NC(=O)COC(=O)C2=NNC(=O)CC2)c1
0.7 | 7 | CC1CCc2cc(F)ccc2N1C(=O)c1cccs1 (stereo not drawn)
· | -19 | CC(=O)NCCc1nc2ccccc2[nH]1
-4.2 | · | Cc1nc(C(C)(C)C)[nH]c(=O)c1Cl
· | 10 | COc1ccccc1NC(=O)c1c(C)nc(SCc2ccccc2)c(C#N)c1-c1ccc(C)o1
11 | 2 | COc1ccc(CNc2nc(NCc3ccc(OC)cc3)n(S(C)(=O)=O)n2)cc1
-0.1 | · | Cc1[nH]n(C)c(=O)c1N=Nc1ccc(S(C)(=O)=O)cc1
· | 6 | O=C(O)c1ccc(N=Cc2cn(-c3ccccc3)nc2-c2cccs2)cc1
· | -8 | Cn1c(=S)[nH]c2cc(C(=O)NC3CCCCCC3)ccc2c1=O
· | -18 | CCCN1C(=O)c2ccccc2NC1c1ccc(Br)cc1 (stereo not drawn)
· | 13 | CCN(CC)S(=O)(=O)c1ccc(C(=O)OCC(=O)c2ccc3c(c2)OCCO3)cc1
-1.4 | 20 | Cc1ccc(C(=O)NC(C)C(c2cccs2)N2CCCC2)s1 (stereo not drawn)
3.2 | -4 | COc1ccc(/C=C(\C#N)S(=O)(=O)c2ccccc2)cc1CSCc1ccco1
0.6 | -11 | CCCSC1=N/C(=C/c2cccs2)C(=O)N1c1ccc(F)c(Cl)c1
3.0 | -13 | O=c1c2c(nc3cc(-c4ccco4)[nH]n13)CCCC2
· | 15 | CC(C)NC(=S)N/N=C/c1ccco1
· | 11 | N=C1C(c2nc3ccccc3s2)=C(O)CN1c1ccc(S(N)(=O)=O)cc1
· | 0 | NC(=S)c1cccnc1
-1.8 | -3 | COc1ccc(C2C(C#N)=C(N)OC3NN=C(C)C32)cc1COc1cccc(Cl)c1 (stereo not drawn)
· | 14 | COc1ccc(C(Nc2cc(C)on2)c2c(C)[nH]c3ccccc23)cc1OC (stereo not drawn)
1.7 | · | O=C(c1ccccc1)c1cccc(N=Cc2c(O)[nH]c(=O)[nH]c2=O)c1
-2.1 | 17 | OC(CCN1CCOCC1)(c1ccc(Cl)cc1)C1CCCCC1 (stereo not drawn)
· | 17 | C=CCn1c(=S)[nH]c2cc(OCC)c(OCC)cc2c1=O
-0.6 | 8 | O=C(CCSc1nc(-c2ccco2)cc(C(F)(F)F)n1)NCc1ccncc1
5.9 | · | CSc1c(C#N)c(-c2cccs2)nn1C(=O)C(C)(C)C
-6.5 | 0 | NC(=O)Cn1nnc(-c2ccccc2)n1
1.5 | · | CCCCCCCCCCCCCCCCOCC(COP(=O)([O-])OCC[N+](C)(C)C)OC (stereo not drawn)
-2.5 | 12 | Cc1ccc2nc(NC(=O)C(C)C)sc2c1
4.2 | 2 | O=C(CN(Cc1ccccc1F)C(=O)c1ccco1)NCc1ccc(F)cc1
-1.0 | 8 | Cc1ccccc1N1C(=O)CC(SC2=NCCS2)C1=O (stereo not drawn)
1.8&-0.6&-0.7 | · | CN1C(C(=O)Nc2ccccn2)=C(O)c2ccccc2S1(=O)=O
-0.9 | · | CNS(=O)(=O)c1ccccc1Sc1cccc2cccc(C(=O)O)c12
-6.4&-0.1 | 19&-2 | c1coc(CNc2nc[n+]3c4c2ncn4CC3)c1
· | 4 | O=C(NCC12CC3CC(CC(C3)C1)C2)c1cc(-c2ccccc2O)no1
· | -11 | CN1CCC(N(C)C(=O)c2cc(=O)c3ccccc3o2)CC1
· | 11 | CSC(=O)CNC1(Cc2ccc(O)cc2)CCCCC1
· | -2 | Cc1nnc(NCc2ccc(F)cc2)c2c1nnn2Cc1ccc(F)cc1
· | -13 | O=c1oc(-c2cccs2)nn1CN1CCN(Cc2cccs2)CC1
2.5 | 8 | O=C(NCCO)N1c2ccccc2Sc2ccccc21
-1.2 | 11 | CCN(CC)C(=O)CSc1nc2cccnc2n1-c1ccccc1OC
0.9 | -3 | Cc1ccc(C(=O)CC(NCCN2CCOCC2)C(=O)O)cc1 (stereo not drawn)
-0.6 | 8 | O=S(=O)(c1ccc(S(=O)(=O)N2CCC3(CC2)OCCO3)cc1)N1CCCC1
· | 6 | O=C(O)CCCC(=O)N1CCCC1
1.6 | 1 | Oc1ccccc1C1=Nc2ccccc2N=C(c2ccco2)C1
· | -1 | COc1cc(Cn2c(N)c(C#N)c3nc4ccccc4nc32)cc(OC)c1OC
· | 7 | CCSc1nnc(Nc2ccccc2)s1
-4.0 | · | Cc1cc2c(cc1C)CSC(c1ccc(Cl)c(Cl)c1)SC2
-0.1 | -6 | CC(C)C(C)(C#N)NC(=O)c1cccnc1Oc1ccc(Cl)cc1 (stereo not drawn)
· | -13 | CC1(C)CC(=O)C(C=Nc2ccccc2)=C(O)C1
· | -6 | CCn1c(CSc2nc3ccccc3s2)nnc1SCC(=O)C(C)(C)C
· | -13 | NC(=O)c1ccccn1
-1.0 | · | CSc1n[nH]c(NC(=O)c2cccs2)c1S(=O)(=O)c1ccc(Cl)cc1
· | -35 | Cc1ccc(-n2ncc(C(=O)NCCN3CCCCC3)c2C2CCN(C(=O)OC(C)(C)C)CC2)cc1
-1.2 | · | N#CCc1ccc(NC2(C#N)C3CC4CC(C3)CC2C4)cc1 (stereo not drawn)
5.5 | · | Cc1ccc(S(=O)(=O)NC(=O)N(C)C2CCCCC2)cc1
· | 12 | CN=c1scc(C)n1/N=C/C1CCCCC1
-2.9 | · | CCc1nc(-c2ccc(Cl)cc2)cs1
· | -5 | Cn1cccc1Cc1nnc(SCC(=O)N2CCc3ccccc32)n1Cc1ccccc1
· | -29 | Cc1cc(C)c2c(c1C#N)CC(C)(C)C2=O
· | -29 | Cc1c(NC2=C(C(=O)c3ccccc3)N(C)S(=O)(=O)c3ccccc32)c(=O)n(-c2ccccc2)n1C
· | -9 | CC(=O)N1CCCc2ccc(NC(=O)Cc3ccc(F)cc3)cc21
0.1 | 7 | Cc1cc(C)n(CC(=O)Nc2nc(-c3ccccc3)cs2)n1
0.2 | 9 | Cc1ccc2[nH]c3c(c2c1)CCCC3=NCCO

Some values from the list:
`CCC(=N)C1=C(O)CC(C)(C)CC1=O` in S aureus helic → -2
`Cc1ccc2nc(-c3ccc(N4C(=O)C=CC4=O)cc3)sc2c1` in S aureus helic → -1

More results follow.
MgrA DNA FP | S aureus helic | SMILES
0.7 | -12 | Cc1noc(C)c1C(=O)Nc1nnc(SCC(=O)O)s1
· | 18 | COc1ccc(C(=O)n2nccc2-c2ccc(-c3cccs3)s2)cc1
· | -17 | CC(=O)Nc1nc2c(s1)CCc1ccccc1-2
5.8 | · | Nc1nc2c(s1)CCc1ccccc1-2
· | 14 | COC(=O)c1sccc1NC(=S)NCCN1CCNC1=O
· | -11 | CCOc1ccc(NC(=O)Cn2c(=O)n(CC(=O)NC3CCCC3)c(=O)c3ccccc32)cc1
4.0 | 8 | c1ccc(OCCN2CCNCC2)cc1
· | 9 | Cc1nc(N2CCCC2)c2ccsc2n1
0.0 | 19 | CCN(CC)C(=O)COc1ccc(OC)cc1

Three entries from above, ordered by the number in S aureus helic, ascending:
MgrA DNA FP | S aureus helic | SMILES
· | -17 | CC(=O)Nc1nc2c(s1)CCc1ccccc1-2
0.7 | -12 | Cc1noc(C)c1C(=O)Nc1nnc(SCC(=O)O)s1
· | 9 | Cc1nc(N2CCCC2)c2ccsc2n1

Gathered by group: the compounds so far with bromine
MgrA DNA FP | S aureus helic | SMILES
-0.8 | · | Cn1cc(Br)c(-c2cccc(NC(=O)c3ccccc3Cl)c2)n1
-2.0 | · | CCOC(=O)c1c(C)n(-c2cccc(Br)c2)c2c1cc(O)c1ccccc12
· | -18 | CCCN1C(=O)c2ccccc2NC1c1ccc(Br)cc1 (stereo not drawn)

High-throughput results as filed in PubChem.
